TRPML1 blocker = inhibitors of human TRPML1 channel. Q9GZU1. TRPML1-inducible cells, Ca2+ dye fluorescence, FDSS; hits give low values; inhibition of EC80 agonist-evoked calcium signal. activity change, negative = inhibition, % (test concentration not listed). 390,000 compounds, 0.02% hits. AID 624415; in the data active means activity change below about -50%; inconclusive means about -30% to -50%; inactive means above about -30%;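 note: stimulus is agonist 54-4 at its EC80 concentration; % is set by controls: 0 for no effect and ±100 for the full control effect; compound concentration not given in the record; the text of the record puts the active cut at -80%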
Target sequence (Q9GZU1 whole entry, looked up): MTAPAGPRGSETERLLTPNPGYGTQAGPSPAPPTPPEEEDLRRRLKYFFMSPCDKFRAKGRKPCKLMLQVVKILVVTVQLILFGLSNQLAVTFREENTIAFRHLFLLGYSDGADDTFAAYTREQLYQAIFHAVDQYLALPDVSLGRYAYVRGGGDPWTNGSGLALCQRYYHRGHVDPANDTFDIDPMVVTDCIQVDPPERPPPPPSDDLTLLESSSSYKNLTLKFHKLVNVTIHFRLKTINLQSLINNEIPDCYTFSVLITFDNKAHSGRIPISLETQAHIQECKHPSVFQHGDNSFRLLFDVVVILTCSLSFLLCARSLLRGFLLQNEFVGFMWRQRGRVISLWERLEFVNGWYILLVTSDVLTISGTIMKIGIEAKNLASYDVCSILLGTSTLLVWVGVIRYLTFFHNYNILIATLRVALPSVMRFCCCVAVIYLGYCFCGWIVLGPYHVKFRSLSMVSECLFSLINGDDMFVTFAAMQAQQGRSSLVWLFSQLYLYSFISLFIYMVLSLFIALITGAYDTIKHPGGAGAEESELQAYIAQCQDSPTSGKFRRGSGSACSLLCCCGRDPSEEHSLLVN
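Calcium fluorescence in TRPML1-DL cells induced overnight with Tet: a 110 s read after compound pin addition, then a 110 s antagonist read after challenge with 54-4 at 4 uM final (EC80).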
Six1-Eya2 blk = blocks human Six1 binding to Eya2; Q15475+O00167; AlphaScreen GST-Six1/His-Eya2 binding, biochemical; hits give low values; control for the full effect not named in the record; activity change, % (concentration not given with the values); 360,000 compounds, 0.56% hits; AID 651725; in the data active = activity change below about -65%; inconclusive = about -30% to -65%; inactive = above about -30%; note: % is set by controls: 0 for no effect and ±100 for the full control effect
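Six1/Eya2 binding was read as AlphaScreen signal after compounds were pinned into GST-Six1 plus His-tagged Eya2 (5X stock 250/500 nM) in pH 8.0 Tris/NaCl/TCEP buffer, beads added, then incubated 1 h, 37 C, dark.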
CtBP-E1A blk = CtBP/E1A binding inhibition; AlphaScreen GST-E1A/His-CtBP binding, 1536-well; hits give low values; control for the full effect not named in the record; 340,000 compounds, 0.49% hits; activity change, % (no concentration beside the values); in the data active means activity change below about -65%; inconclusive means about -30% to -65%; inactive means above about -30%; note: % is set by controls: 0 for no effect and ±100 for the full control effect
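Homogeneous bead-based format: GST-tagged E1A captured on glutathione donor beads, His-tagged CtBP on nickel acceptor beads; compounds precede bead addition by 2 h at 37 °C.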
TRPML1 agonist = agonists of human TRPML1 channel; Q9GZU1; TRPML1-expressing cells, Ca2+ dye fluorescence, FDSS; host cell line not named in the record; reference of the full effect not given here; activation, % (no concentration beside the values); 410,000 compounds, 0.12% hits; in the data active = activation above about 50%; inconclusive = about 30% to 50%; inactive = below about 30%; note: 0% is about no effect; the text of the record puts the active cut at 80%
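TRPML1-DL cells, Tet-induced overnight (~16 h, 37 degrees C), loaded 45-90 min at room temperature with Ca8 no-wash calcium dye plus quencher. FDSS fluorescence: 10 s baseline, compound pin-transfer, 110 s agonist read, then EC80 54-4 (4uM final) and 110 s antagonist read.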
Active calls of the source: *; / = not tested or not shown.

1: O=C(Nc1ccc2c(c1)OCO2)c1cccn(Cc2cccc(F)c2)c1=O
2: CCOC(=O)c1ccc(NC(=O)c2cccn(Cc3ccc(C)cc3)c2=O)cc1
3: CCCCc1ccc(NC(=O)c2cccn(Cc3ccc(Cl)cc3)c2=O)cc1
4: CC(=O)O[C@H]1CC[C@]2(C=O)C3CC[C@]4(C)[C@@H](C5=CC(=O)OC5)CC[C@]4(O)C3CC[C@]2(O)C1 (stereo partly specified)
5: Cc1ccc(-n2c(/C=C/c3ccc(Br)s3)nc3ccccc3c2=O)cc1
6: CC(C)(C)c1ccc(OCC(=O)Nc2ccc(Cl)cc2C(=O)c2ccccc2)cc1
7: CCc1ccc(NC(=O)c2cccn(Cc3cccc([N+](=O)[O-])c3)c2=O)cc1
8: CC(C)c1ccc(OCC(=O)N2CCN(CCc3ccncc3)CC2)cc1
9: COc1ccc(-n2c(/C=C\c3ccccc3F)nc3ccccc3c2=O)c(OC)c1
10: Cc1cccc(-c2nc(CN3C(=O)CN=C(c4ccccc4)c4ccccc43)c(C)o2)c1

compound no. | 1 | 2 | 3 | 4 | 5 | 6 | 7 | 8 | 9 | 10
TRPML1 blocker | 0 | -20 | 6 | -3 | -7 | -10 | -10 | -3 | 52 | -11
Six1-Eya2 blk | / | / | / | / | / | / | / | / | / | /
CtBP-E1A blk | / | / | / | / | / | / | / | / | / | /
TRPML1 agonist | -1.1 | -0.9 | 2.9 | 0.0 | 0.9 | 20 | -0.6 | 0.6 | 0.4 | 0.9

11: Cc1ccc(Cn2cccc(C(=O)Nc3ccc(C)c(Cl)c3)c2=O)cc1
12: Cc1nnc(NC(=O)c2cccn(Cc3ccccc3)c2=O)s1
13: CCC12CN3CC(CC)(CN(C1)C3c1ccccn1)C2=O (stereo unspecified)
14: Cn1cc(/C=C/c2nc3ccccc3c(=O)n2-c2ccccc2)c2ccccc21
15: O=C(COc1ccc(Br)cc1)Nc1ccc(Cl)cc1C(=O)c1ccccc1
16: CC(C)C12CN3CC(C(C)C)(CN(C1)C3c1ccccn1)C2=O (stereo unspecified)
17: COc1ccccc1-c1nn2c(=O)cc(CN3CCN(C(=O)COc4ccccc4Cl)CC3)nc2s1
18: Cc1cc(-n2c(/C=C/c3ccc(Br)s3)nc3ccccc3c2=O)ccc1Br
19: Cc1cccc(-n2c(/C=C/c3cn(C)c4ccccc34)nc3ccccc3c2=O)c1
20: COC(=O)c1ccccc1NC(=O)c1cccn(Cc2cccc(Cl)c2)c1=O

compound no. | 11 | 12 | 13 | 14 | 15 | 16 | 17 | 18 | 19 | 20
TRPML1 blocker | 18 | 19 | -18 | -10 | 4 | 21 | -6 | 13 | -6 | 7
Six1-Eya2 blk | / | / | / | / | / | / | / | / | / | /
CtBP-E1A blk | / | / | / | / | / | / | / | / | / | /
TRPML1 agonist | -0.6 | -0.4 | -0.3 | 0.3 | -0.5 | -0.9 | -0.9 | 2.7 | 1.1 | 2.1

Shown as tab-separated lines: 14 of the compounds above
No.	Compound	TRPML1 blocker	Six1-Eya2 blk	CtBP-E1A blk	TRPML1 agonist
6	CC(C)(C)c1ccc(OCC(=O)Nc2ccc(Cl)cc2C(=O)c2ccccc2)cc1	-10	/	/	20
7	CCc1ccc(NC(=O)c2cccn(Cc3cccc([N+](=O)[O-])c3)c2=O)cc1	-10	/	/	-0.6
8	CC(C)c1ccc(OCC(=O)N2CCN(CCc3ccncc3)CC2)cc1	-3	/	/	0.6
9	COc1ccc(-n2c(/C=C\c3ccccc3F)nc3ccccc3c2=O)c(OC)c1	52	/	/	0.4
10	Cc1cccc(-c2nc(CN3C(=O)CN=C(c4ccccc4)c4ccccc43)c(C)o2)c1	-11	/	/	0.9
11	Cc1ccc(Cn2cccc(C(=O)Nc3ccc(C)c(Cl)c3)c2=O)cc1	18	/	/	-0.6
12	Cc1nnc(NC(=O)c2cccn(Cc3ccccc3)c2=O)s1	19	/	/	-0.4
13	CCC12CN3CC(CC)(CN(C1)C3c1ccccn1)C2=O (stereo unspecified)	-18	/	/	-0.3
14	Cn1cc(/C=C/c2nc3ccccc3c(=O)n2-c2ccccc2)c2ccccc21	-10	/	/	0.3
15	O=C(COc1ccc(Br)cc1)Nc1ccc(Cl)cc1C(=O)c1ccccc1	4	/	/	-0.5
16	CC(C)C12CN3CC(C(C)C)(CN(C1)C3c1ccccn1)C2=O (stereo unspecified)	21	/	/	-0.9
17	COc1ccccc1-c1nn2c(=O)cc(CN3CCN(C(=O)COc4ccccc4Cl)CC3)nc2s1	-6	/	/	-0.9
18	Cc1cc(-n2c(/C=C/c3ccc(Br)s3)nc3ccccc3c2=O)ccc1Br	13	/	/	2.7
19	Cc1cccc(-n2c(/C=C/c3cn(C)c4ccccc34)nc3ccccc3c2=O)c1	-6	/	/	1.1

Additional entries.
21: Cc1ccccc1OCC(=O)N1CCN(CCc2ccccn2)CC1
22: CCOc1ccc2nc(NC(=O)c3cccn(Cc4ccc(Cl)cc4)c3=O)sc2c1
23: Cc1ccc(Cn2cccc(C(=O)Nc3ccc4c(c3)OCCO4)c2=O)cc1
24: COC(=O)c1ccc(NC(=O)c2cccn(Cc3ccccc3C)c2=O)cc1
25: Cc1ccc(Cl)cc1NC(=O)N(Cc1ccc2c(c1)OCO2)C1CCN(Cc2ccccc2)CC1
26: Cc1ccc(Cn2cccc(C(=O)Nc3cc([N+](=O)[O-])ccc3C)c2=O)cc1
27: O=C1CC(c2c(F)cccc2Cl)c2c(c3ccccc3oc2=O)O1 (stereo unspecified)
28: Cc1nnc(NC(=O)c2cccn(Cc3cccc([N+](=O)[O-])c3)c2=O)s1
29: COc1ccc(Cl)cc1NC(=O)c1sc2nc3c(cc2c1N)N1CCC3CC1
30: c1ccc(N2[C@@H]3CC[C@H]2c2ccncc2C3)cc1

compound no. | 21 | 22 | 23 | 24 | 25 | 26 | 27 | 28 | 29 | 30
TRPML1 blocker | 17 | -6 | -12 | 25 | -2 | -5 | -9 | -3 | 13 | /
Six1-Eya2 blk | / | / | / | / | / | / | / | / | / | -1
CtBP-E1A blk | / | / | / | / | / | / | / | / | / | 2
TRPML1 agonist | 0.4 | 0.6 | -0.7 | 1.4 | 2.5 | -0.5 | 0.7 | -0.4 | -0.7 | /

31: CS(=O)(=O)c1ccc(C2=C(CNC(=O)c3ccncc3)[C@H]3CC[C@@H](C2)N3CCOc2ccccc2)cc1
32: CCOC(=O)c1cccc(C2=C(CNC(=O)c3ccc([N+](=O)[O-])cc3)[C@H]3CC[C@@H](C2)N3Cc2ccccc2)c1
33: COC(=O)C1=C(c2ccc(OCc3ccccc3)cc2)C[C@@H]2CC[C@H]1N2C
34: CCOC(=O)c1cccc(C2=C(CNC(=O)c3ccncc3)[C@H]3CC[C@@H](C2)N3Cc2ccccc2)c1
35: CCOC(=O)c1cccc(C2=C(CNC(=O)c3nccs3)[C@H]3CC[C@@H](C2)N3Cc2ccccc2)c1
36: C[C@@H]1CN([C@@H](C)CO)C(=O)CCCn2nncc2CO[C@@H]1CN(C)C(=O)Oc1cccc2ccccc12

compound no. | 31 | 32 | 33 | 34 | 35 | 36
TRPML1 blocker | / | / | / | / | / | /
Six1-Eya2 blk | 3 | -20 | -7 | -2 | -8 | 0
CtBP-E1A blk | 11 | -2 | -18 | -4 | -6 | 5
TRPML1 agonist | / | / | / | / | / | /

High-throughput results deposited in PubChem BioAssay by National Center for Advancing Translational Sciences (NCATS).

A portion of the library, so the mix of outcomes need not match the whole.
